ClpP mod – qHTS Assay for Activators of ClpP | purified B. subtilis ClpP, FRET peptide cleavage, 20 min | Potency, µM (doses to about 57.5 µM), for the others: at the highest dose activity change, negative = active | AID 651965, 2013 | 1.9% of 340,000 active; active = well fitted falling curve with a large enough effect; inconclusive = small, poorly fitted or top-dose-only effect; inactive = no such curve, though single readings can be large or run the other way; also: the source files actives as falling curves though it sought activators and does not explain the sign; nearly all actives have a fitted effect of over 65% in size; many hits overshoot -100%
Target sequence (P80244 whole entry, looked up): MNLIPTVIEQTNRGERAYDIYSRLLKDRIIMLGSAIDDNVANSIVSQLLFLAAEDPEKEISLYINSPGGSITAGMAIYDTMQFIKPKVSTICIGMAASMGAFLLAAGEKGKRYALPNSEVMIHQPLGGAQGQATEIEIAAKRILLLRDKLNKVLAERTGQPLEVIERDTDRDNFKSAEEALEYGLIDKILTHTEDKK
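Buffer: 100 mM Tris/HCl pH8, 100 mM KCl, 0.05% low protease BSA, 2.5% glycerol, 0.01% Tween-20. ClpP 10 microg/mL final; 20 min RT; delta FRET normalized to ADEP and DMSO controls.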
* marks the source's active call; other numbers are inactive results; ? = inconclusive. Potency is read from the fitted curve at half-maximal effect. An excerpt; the hit share may differ from the screen's.

SMILES	ClpP mod
O=C(c1cccc(Cl)c1)N(Cc1ccco1)Cc1ccccc1Cl	-7.9%
Cc1cc(Br)cc2c1N(Cc1ccccc1OC(C)C)C(=O)C2=O	-2.5%
Cc1ccccc1CS(=O)(=O)Cc1ccc(C(=O)NCc2ccc(F)cc2)o1	2.1%
Cc1oc2cc3oc(=O)c(CC(=O)N4CCCCC4)c(C)c3cc2c1C	-18%
Cc1cccc(-n2c3nc(=O)[nH]c(=O)c-3cc3ccc(Cl)cc32)c1C	?
CCCC(=O)C1=C(c2cccc(OC)c2)N(C(=O)CCC)n2c(C)nnc2S1	3.6%
CC(C)N1C(=O)c2ccccc2NC(=O)C1C(=O)NC1CC1 (centres undefined)	1.4%
COc1ccccc1CNC(=O)c1ccc(-c2nc(CN3CCc4ccccc43)c(C)o2)cc1	3.0%
CCOc1ccc(NC(=O)c2noc3c2CSc2ccccc2-3)cc1	-5.7%
O=C1c2oc3ccccc3c(=O)c2C(c2cccc(Br)c2)N1c1ccccn1 (centres undefined)	-0.3%
O=C(c1ccccc1Cl)N1CCCC(c2nc3c(nnn3Cc3ccc(F)cc3F)c(=O)[nH]2)C1 (centres undefined)	-10.0%
Cc1ccc(OCCSc2nc(-c3ccccc3C)nc3cc(=O)[nH]n23)cc1Cl	-0.7%
O=C(COc1ccc([N+](=O)[O-])cc1)NCC1(N2CCOCC2)CCCCC1	-4.5%
O=C(CCn1c(=O)c2sccc2n(CC(=O)Nc2ccccc2)c1=O)NCc1ccccc1Cl	1.5%
CC1=C(c2ccc(C)cc2)S(=O)(=O)NC1=NCCCN1CCN(c2ccc(F)cc2)CC1	-0.2%

Compounds shown so far containing bromine (2):
SMILES	ClpP mod
Cc1cc(Br)cc2c1N(Cc1ccccc1OC(C)C)C(=O)C2=O	-2.5%
O=C1c2oc3ccccc3c(=O)c2C(c2cccc(Br)c2)N1c1ccccn1 (centres undefined)	-0.3%

In a second layout: 4 of the compounds above.
O=C(c1cccc(Cl)c1)N(Cc1ccco1)Cc1ccccc1Cl
  ClpP mod: -7.9%
Cc1cc(Br)cc2c1N(Cc1ccccc1OC(C)C)C(=O)C2=O
  ClpP mod: -2.5%
Cc1ccccc1CS(=O)(=O)Cc1ccc(C(=O)NCc2ccc(F)cc2)o1
  ClpP mod: 2.1%
Cc1oc2cc3oc(=O)c(CC(=O)N4CCCCC4)c(C)c3cc2c1C
  ClpP mod: -18%

The listing continues:
SMILES	ClpP mod
COc1ccc(-n2c(/C=C/c3cc(OC)c(OC)cc3OC)nc3cc4ccccc4cc3c2=O)cc1Cl	-2.8%
CC(C)CCNC(=O)Nc1cc(C(=O)NCc2cccc(F)c2)ccc1N1CCCC1	-8.5%
O=C(CCC(=O)OCC(=O)c1ccc(Cl)cc1)Nc1ccc(Oc2ccccc2)cc1	-2.7%
CCOc1ccc(NC(=O)c2oc3ccccc3c2NC(=O)c2ccc(OC)cc2OC)cc1	-17%
CCC(C(=O)NC1CCCC1)n1c(-c2ccccn2)nc2ccccc21 (centres undefined)	5.2%
COc1ccc2oc(=O)c(C(=O)NCCc3c(C)[nH]c4ccc(Br)cc34)cc2c1	1.8%
COc1ccc(Cl)cc1NC(=O)C(C)n1nnc2sc3c(c2c1=O)CCCC3 (centres undefined)	0.2%
CC(=O)c1ccc(NC(=O)c2ccc3c(c2)N(Cc2cccc(Cl)c2)C(=O)c2ccccc2S3=O)cc1 (centres undefined)	-2.7%
COc1ccc(-c2cn3c(n2)sc2cc(C(=O)Nc4ccccc4F)ccc23)cc1	?
CCSc1ccc(C(=O)Nc2ccc(-c3nc4ccc(C)cc4s3)cc2)cc1	?
COc1ccc(CNS(=O)(=O)c2cc(C(=O)Nc3cc(Cl)cc(Cl)c3)ccc2F)cc1	-20%
Cc1ccccc1C(=O)Nc1cccc(OCc2cc(=O)n3c(C)csc3n2)c1	-5.1%
Cc1ccc(Nc2c(-c3cccs3)nc3nc(C)cc(C)n23)cc1	0.2%
CN(C)CCN(Cc1ccccc1)S(=O)(=O)c1ccc(-c2cc(C(F)(F)F)on2)s1	0.8%
Cc1cc(C)cc(NC(=O)C2CCN(c3nnc(-n4c(C)ccc4C)s3)CC2)c1	0.9%
COc1cccc(CNC(=O)C(=O)NCC(c2cccs2)S(=O)(=O)c2cccs2)c1 (centres undefined)	1.4%
O=C(CSC1=Nc2ccccc2C2=NC(CCC(=O)NC3CCCCC3)C(=O)N12)Nc1cccc(C(F)(F)F)c1 (centres undefined)	?
COc1ccc2cc3cc(C(=O)N4CCN(c5ccccc5F)CC4)oc3nc2c1	-19%
Cn1cc(C(=O)NCCc2ccc(Cl)cc2)c(=O)c2cc(S(=O)(=O)N3CCOCC3)ccc21	-1.2%
COc1cccc2c1Oc1ncccc1N(c1ccc(C(=O)NCc3cccc(C)c3)s1)C2	32µM*
COc1cccc(NC(=O)CSC2=Nc3ccccc3C3=NC(CC(=O)NCc4cccs4)C(=O)N23)c1 (centres undefined)	11%
Cc1ccc(NC(=O)CCS(=O)(=O)c2cc3c4c(c2)CCN4C(=O)CC3)c(C)c1	1.0%
CN(C)c1ccc(/C=C/c2ccc3ccccc3[n+]2[O-])cc1	-4.6%
COc1cc(OC)c(NC(=O)COc2ccccc2-c2nnc(-c3ccccc3)o2)cc1Cl	-6.4%
Cc1ccc(NC(=O)/C(C#N)=C\c2ccc(Cl)cc2Cl)cc1C	-3.2%
COc1ccc(NC(=O)Cn2c(=O)nc(-c3ccccc3)c3ccccc32)cc1OC	-8.7%
Cc1ccc(Cl)cc1N1CCN(C(=O)CN2C(=O)COc3ccc(S(=O)(=O)N4CCCCCC4)cc32)CC1	0.8%
Cc1cc(C)c(OCC(=O)N(Cc2cccc(F)c2)Cc2ccco2)c(C)c1	0.8%
O=C1Nc2ccccc2-c2nnnn2C1N1CCCCC1 (centres undefined)	-1.1%
CCOCCCNC(=O)c1ccc(-c2nc(CS(=O)(=O)c3ccccc3)c(C)o2)cc1	3.8%
COc1cc(C(=O)NCCCc2nc3ccccc3n2CC(C)C)cc(OC)c1OC	-1.6%
COc1ccccc1-c1nnc(SCC(=O)Nc2ccccc2F)o1	-5.9%
O=c1cc2nc(-c3ccccc3)nc(SCc3cccc(Br)c3)n2[nH]1	39%
CN1CCN(CCNC(=O)c2cnn(-c3ccc(Cl)cc3)c2C2CCN(C(=O)OC(C)(C)C)CC2)CC1	-1.1%
Cc1cc2[nH]c(=O)c(=O)[nH]c2cc1S(=O)(=O)Nc1cccc(C(F)(F)F)c1	?
Cc1c(C(=O)Nc2ccc(F)c(Cl)c2)oc2ccc(S(=O)(=O)N(C)C3CCCCC3)cc12	?
Cc1ccc(C)c(Cn2c3ccccc3c3cnn(CC(=O)NC(C)c4ccccc4)c(=O)c32)c1 (centres undefined)	-11%
CNC(=O)Cn1c(=O)c2cccn2c2ccc(F)cc21	?
CCOc1ccccc1CN1CCc2nc(Nc3ccc4c(c3)OCCO4)ncc2C1	-0.4%
Cc1cc2c(cc1C)NC(CC(=O)Nc1cccc(C)c1C)C(=O)N2 (centres undefined)	3.9%
Cc1cc2nc3c(=O)n(C)c(=O)n(C)c3nc2cc1N=CN(C)C	-1.2%
CC(C)CCNC(=O)c1ccc(Cn2c(SCC(=O)NC(C)C)nc3ccccc3c2=O)cc1	0.7%
Cc1cccc(C(=O)NCC(=O)OCc2cc(=O)n3nc(CC(C)C)sc3n2)c1	-3.1%
CC(=O)c1ccc(S(=O)(=O)N2CCN(c3nc(-c4cccs4)nc4ccccc34)CC2)cc1	-9.4%
COC(=O)c1cc2oc(C)cc2n1Cc1ccc(Br)cc1F	-9.9%
COc1cccc2sc(N(Cc3cccnc3)C(=O)c3ccc4c(c3)OCCO4)nc12	70%
O=C(Nc1cccnc1Cl)c1cnn2c1NC(=C1CC1)C=C2C(F)F	176%
CN(Cc1ccccc1)C(=O)c1ccc(CSc2nc3cccnc3n2Cc2ccccc2)cc1	4.7%
CC(C)NC(=O)c1ccc(Cn2c(=O)c3cccn3c3cccnc32)cc1	-19%
CC(C)c1ccc(N2C(=O)CSC23C(=O)N(C)c2ccccc23)cc1 (centres undefined)	1.5%
O=C([C@@H]1CC=C[C@@H]2CCN(C3CCCCC3)C(=O)[C@@H]21)N1CCOCC1	0.4%
Cc1cccc(-c2nc3scc(CCNS(=O)(=O)c4ccc5c(c4)OCCO5)n3n2)c1	0.2%
COc1cccc(C(=O)Nc2cccc(-c3cn4c(C)csc4n3)c2)c1OC	-5.2%
Cc1noc(/C=C/c2ccccc2F)c1S(=O)(=O)N1CCC(C(=O)NCc2ccco2)CC1	-7.2%
CCN(C(=O)Cn1c(=O)n(Cc2ccc3c(c2)OCO3)c(=O)c2ccc(C(=O)NC3CCCCC3)cc21)c1cccc(C)c1	-9.3%
CC1=C(C(=O)Nc2ccccc2)C(c2cccc(O)c2)n2nc(-c3ccccc3Cl)nc2N1 (centres undefined)	-9.2%
Cc1ccc(Cl)cc1NC(=O)CCCN1C(=O)CCn2nc(-c3cn(C)c4ccccc34)cc21	-18%
O=C(Nc1ccc2c(c1)OCCO2)C1c2ccccc2OCC(=O)N1CCc1ccccc1 (centres undefined)	-1.4%
COc1ccc2c(CNCc3ccco3)c(C(=O)O)n(Cc3ccc(F)cc3Cl)c2c1	-17%
COc1ccc(Cn2c(SCC(=O)N(C)Cc3ccccc3)nc3ccccc32)cc1	-1.6%

Single entries from the entries so far:
ClpP mod, Cn1cc(C(=O)NCCc2ccc(Cl)cc2)c(=O)c2cc(S(=O)(=O)N3CCOCC3)ccc21 : -1.2%
ClpP mod, COc1ccc(Cl)cc1NC(=O)C(C)n1nnc2sc3c(c2c1=O)CCCC3 (centres undefined) : 0.2%

(next part)
SMILES	ClpP mod
CCn1c2ccccc2c2nnc(N3CCN(c4ccc(OC)cc4)CC3)nc21	6.3%
CCCOC(=O)c1cccc(Nc2nc(C(=O)OCC)nc3ccccc23)c1	-22%
CC(C)Oc1ccc(CNC(=O)CN2C(=O)CCn3nc(-c4cn(C)c5ccccc45)cc32)cc1	-13%
O=C(c1cc2ccccc2oc1=O)N1CCN(c2ccc(Cl)cc2)CC1	-1.9%
Fc1ccc(-c2noc3ncnc(NCCc4ccccc4)c23)cc1	3.1%
CCc1ccc(NC(=O)CN2C(=O)C3(SCC(=O)N3c3ccc(F)c(F)c3)c3ccccc32)cc1 (centres undefined)	-4.0%
CCCCNC(=O)CCC1N=C2c3ccccc3N=C(SCC(=O)NCCc3ccc(OC)c(OC)c3)N2C1=O (centres undefined)	-17%
CCCCc1c(-c2ccccc2OC)ncn1CCc1cccc(OC)c1	-5.2%
COc1ccc(CNC(=O)C2CCCN(S(=O)(=O)c3ccc4c(ccn4C)c3)C2)c(OC)c1 (centres undefined)	-7.8%
COc1ccc(NC(=O)c2nnn(Cc3nc(-c4cc(Br)ccc4OC)oc3C)c2C)cc1	0.2%
CCOc1ccc(NC(=O)CSc2oc(-c3ccco3)nc2S(=O)(=O)c2ccc(Cl)cc2)cc1	8.2%
CCOc1ccc(-c2cc(C(F)(F)F)c(C#N)c(SCC(=O)Nc3ccccc3)n2)cc1	-19%
Cc1ccc(Cn2c(SCC(=O)NCc3ccc(Cl)cc3)nc3ccsc3c2=O)cc1	0.3%
COc1ccc(-c2nn3c(=O)cc(CN4CCN(S(=O)(=O)c5ccc(C)cc5)CC4)nc3s2)cc1	3.7%
COC(=O)c1sc(N)nc1CCNC(=O)OC(C)(C)C	-0.3%
COc1ccc(C2Nc3ccccc3-c3cc(C)nn32)c(OC)c1 (centres undefined)	32µM*
COc1cccc(CNC(=O)CCc2c(C)nn(-c3ccc(N4CCOCC4)nn3)c2C)c1	-0.1%
CCCCC(=O)N1CCc2cc(OC)c(OC)cc2C1COc1ccc(OC)cc1 (centres undefined)	-0.3%
COc1ccc(Nc2c3c(nc4ccc(NC(=O)/C=C/c5cccc(OC)c5OC)cc24)CCCC3)cc1OC	-2.6%
Cc1ccc(CCNC(=O)c2cc3c(s2)-c2c(C)cccc2OC3)cc1	4.9%
CN(CCCNC(=O)c1cc2c(=O)n(C)c3ccccc3c2s1)Cc1ccccc1	4.5%
Cc1c(Cl)cccc1Nc1nn2c(=O)c3ccc(C(=O)NCCC4=CCCCC4)cc3nc2s1	-14%
O=C(NCCCN1CCN(c2ccccc2)CC1)c1cc2c(s1)-c1ccccc1OC2	64%
O=C(Nc1ccccc1C(=O)OCc1cc(=O)n2c3c(sc2n1)CCCC3)c1ccc(Cl)cc1	-19%
COc1ccc(CNC(=O)c2cnc(N3CCOCC3)c3ccccc23)cc1	-6.6%
COc1ccc(NC(=O)c2ccc(-c3nc(CSc4ccc(C)cc4)c(C)o3)cc2)cc1Cl	-19%
CCN(CC)C(=O)Cn1c(=O)n(CCc2ccccc2)c(=O)c2ccccc21	-4.3%
COc1ccc(-c2[nH]ncc2C(=O)NCc2cccc(OC)c2)cc1	-0.2%
CCOC(=O)c1c(C)[nH]c(CCC(=O)Nc2ccc(OC)c(OC)c2)c1C	-1.7%
Cc1cccc(-c2noc(-c3ccc(NC4CCCC4)c([N+](=O)[O-])c3)n2)c1	-0.4%
CCC1CCC(C(=O)NC(C(=O)Nc2cccc(OC)c2)C(C)C)CC1 (centres undefined)	2.3%
COc1ccc(-c2cc(C(F)(F)F)c(C#N)c(SCC(=O)Nc3ccc(F)cc3)n2)cc1	-3.7%

Assay outcomes (PubChem)
